Screening data as filed in PubChem BioAssay.
Shh pathway inh: Sonic Hedgehog pathway inhibition; inhibition, % (test concentration not listed); AID 2313; Shh-LIGHT2 Gli-luciferase reporter, 30 h; 2.1% of 22,000 active;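 active = replicate mean of 65% or more; inconclusive = mean lower but half the replicates past it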;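 note: pathway switched on by Shh-conditioned medium diluted 1 in 25 in low serum; 100 nL library stock added to about 40 µL; 0% = median of neutral wells and 100% = positive control level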
PD-1 reverse act: reversal of PD-1 mediated T-cell inhibition. AID 2316. primary human CD4 T cells, PD-L1 beads, CellTiter-Glo 96 h. 29,000 tested, under 10 active. activation, % (no concentration beside the values);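 active = replicate mean of 50% or more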;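 note: 0% = median vehicle wells and 100% = positive control; 100 nL library stock added to about 50 µL; numbers are from one replicate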
MITF inh: inhibitors of MITF; TRPM1 promoter luciferase, luminescence, 24 h; inhibition, % (concentration not given with the values); 0.28% of 37,000 active;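 active = most replicates at 85% or more, or half of them and the mean; inconclusive = half reach 85% but not the mean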;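 note: human melanocyte line stably carrying TRPM1 promoter luciferase reporter; 0% = vehicle wells and 100% = a positive control; the first replicate is given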
YB-1 expr inh: YB-1 expression inhibition. U2OS, qRT-PCR YB-1 vs CDIP delta delta Cp, 16 h; hits give high values; zero = DMSO, each unit about twofold. delta delta Cp (YB-1 minus CDIP) (test concentration not listed). 0.37% of 30,000 active;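 active = delta delta Cp rounded down to an integer at or above 3, about 3 SD of DMSO wells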;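 note: higher means less YB-1 transcript or more CDIP transcript relative to DMSO; stock transfer was 100 nL into about 100 µL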
Starred values were filed as active, the others as inactive; ? = inconclusive; . = not tested or not shown.

SMILES	Shh pathway inh	PD-1 reverse act	MITF inh	YB-1 expr inh
C[C@@H]1CN([C@@H](C)CO)C(=O)c2cccc(NS(=O)(=O)c3cn(C)cn3)c2O[C@@H]1CN(C)Cc1ccncc1	-23	2.7	0	0.38
CCCCc1c(C)nc(-c2ccc(Cl)cc2)[nH]c1=O	.	-0.4	-15	-0.13
C[C@@H]1CN([C@H](C)CO)C(=O)Cc2cc(NC(=O)CCC(F)(F)F)ccc2O[C@H]1CN(C)CC1CC1	9	3.9	-4	-0.37
CC1CCC2(C)C(CC(O)C(O)C23CO3)C1(C)CCC1=CC(=O)OC1O (centres undefined)	6	1.1	5	-0.063
Oc1ccc(CCCCC(O)CCc2ccc(O)cc2)cc1 (centres undefined)	31	.	.	0.015
C[C@@H]1CN([C@H](C)CO)C(=O)c2cccc(NS(=O)(=O)c3cccs3)c2O[C@H]1CN(C)CC1CC1	3	3.2	-20	-0.16
C[C@@H]1CN([C@@H](C)CO)C(=O)Cc2cc(NC(=O)CCN3CCOCC3)ccc2O[C@@H]1CN(C)Cc1ccc2c(c1)OCO2	-2	.	-7	-0.11
C[C@@H]1CCCCO[C@@H](CN(C)C(=O)c2ccccc2)[C@@H](C)CN([C@H](C)CO)C(=O)c2cc(NC(=O)Cc3ccccc3)ccc2O1	0	1.0	23	-0.21
C[C@H]1CN([C@@H](C)CO)C(=O)Cc2cc(NS(=O)(=O)c3ccc(Cl)cc3)ccc2O[C@@H]1CN(C)C(=O)Nc1ccc(F)cc1	.	.	-10	-0.22
Cc1cc(Cl)c(S(=O)(=O)Nc2ccc3c(c2)OCCO3)cc1OCC(N)=O	.	0.6	-29	.

One compound at a time, from the list above. Order of screens: Shh pathway inh | PD-1 reverse act | MITF inh | YB-1 expr inh
Entry for C[C@@H]1CN([C@@H](C)CO)C(=O)Cc2cc(NC(=O)CCN3CCOCC3)ccc2O[C@@H]1CN(C)Cc1ccc2c(c1)OCO2 = -2 | . | -7 | -0.11
Entry for C[C@@H]1CN([C@H](C)CO)C(=O)Cc2cc(NC(=O)CCC(F)(F)F)ccc2O[C@H]1CN(C)CC1CC1 = 9 | 3.9 | -4 | -0.37

(continued)
SMILES	Shh pathway inh	PD-1 reverse act	MITF inh	YB-1 expr inh
C[C@@H]1CN([C@@H](C)CO)C(=O)Cc2cc(NS(=O)(=O)c3ccc(Cl)cc3)ccc2O[C@@H]1CN(C)C(=O)Nc1ccc(C(F)(F)F)cc1	.	0.2	0	-0.31
Cc1noc(C)c1NC(=O)N(C)C[C@H]1Oc2c(NC(=O)NC(C)C)cccc2C(=O)N([C@H](C)CO)C[C@@H]1C	-2	.	-1	0.33
O=C(CSc1nnc(-c2cccs2)n1-c1ccccc1)N1CCOCC1	.	1.8	-1	.
Cc1ccccc1-c1noc(CCC(=O)Nc2ccc(Cl)cc2)n1	.	1.0	6	.
COc1ccc(S(=O)(=O)N(C)C[C@@H]2Oc3c(NS(=O)(=O)c4ccc(C)cc4)cccc3C(=O)N([C@@H](C)CO)C[C@@H]2C)cc1	17	.	12	-0.16
COc1ccc(NC(=O)N(C)C[C@@H]2Oc3ccc(NS(=O)(=O)c4ccc(OC)cc4)cc3C(=O)N([C@@H](C)CO)C[C@H]2C)cc1	.	1.9	0	0.36
C[C@@H]1CN([C@@H](C)CO)C(=O)c2cc(NC(=O)Nc3ccccc3)ccc2O[C@@H]1CN(C)Cc1ccc(Cl)c(Cl)c1	39	0.3	34	0.18
CCOC(=O)c1sc(N2C(=O)C(=O)C(C(=O)c3ccc(OC)c(C)c3)C2c2ccco2)nc1C (centres undefined)	.	-1.0	-1	.
CC(C)[C@H](NC(=O)[C@H](C)N(C)C)C(=O)N1CC[C@@H]2Oc3ccc(cc3)/C=C\NC(=O)[C@H](Cc3ccccc3)NC(=O)C21 (some centres undefined)	4	1.4	-5	0.028
Cc1noc(C)c1S(=O)(=O)Nc1ccc2c(c1)C(=O)N([C@@H](C)CO)C[C@H](C)[C@H](CN(C)Cc1ccc(-c3ccccc3)cc1)O2	-3	-0.9	1	0.099

An excerpt from above in order of SMILES length, ascending.
SMILES	Shh pathway inh	PD-1 reverse act	MITF inh	YB-1 expr inh
Cc1ccccc1-c1noc(CCC(=O)Nc2ccc(Cl)cc2)n1	.	1.0	6	.
CCOC(=O)c1sc(N2C(=O)C(=O)C(C(=O)c3ccc(OC)c(C)c3)C2c2ccco2)nc1C (centres undefined)	.	-1.0	-1	.
COc1ccc(NC(=O)N(C)C[C@@H]2Oc3ccc(NS(=O)(=O)c4ccc(OC)cc4)cc3C(=O)N([C@@H](C)CO)C[C@H]2C)cc1	.	1.9	0	0.36
Cc1noc(C)c1S(=O)(=O)Nc1ccc2c(c1)C(=O)N([C@@H](C)CO)C[C@H](C)[C@H](CN(C)Cc1ccc(-c3ccccc3)cc1)O2	-3	-0.9	1	0.099

Carrying on.
SMILES	Shh pathway inh	PD-1 reverse act	MITF inh	YB-1 expr inh
CC1(C)C[C@H]2C3=CCC4[C@@]5(C)CC[C@H](O[C@@H]6O[C@H](CO)[C@@H](O)[C@H](O)[C@H]6O)C(C)(C)C5CC[C@@]4(C)[C@]3(C)CC[C@@]2(C(=O)O[C@@H]2O[C@H](CO)[C@@H](O)[C@H](O)[C@H]2O)CC1O (some centres undefined)	5	2.8	-2	-0.00067
C/C(=C\Cc1c(O)ccc2cc(O)c(=O)oc12)COC1OC(CO)C(O)C(O)C1O (centres undefined)	-8	.	.	0.11
Cc1cc(Br)cnc1N=CN(C)C	6	1.8	-29	0.34
COc1ccc(CN(C)C[C@@H]2OCCCC[C@@H](C)Oc3ccc(NC(=O)Nc4ccc(C(F)(F)F)cc4)cc3C(=O)N([C@H](C)CO)C[C@@H]2C)cc1	21	-5.0	-5	0.037
CC(C)NC(=O)Nc1ccc2c(c1)CC(=O)N([C@@H](C)CO)C[C@@H](C)[C@@H](CN(C)Cc1ccc(Cl)c(Cl)c1)O2	17	.	0	-0.042
C[C@H]1CN([C@@H](C)CO)C(=O)c2cccc(NC(=O)Nc3ccccc3)c2O[C@@H]1CN(C)C(=O)Nc1ccc2c(c1)OCO2	-41	.	-19	-0.17
COc1ccc(NC(=O)N(C)C[C@H]2Oc3ccc(NC(=O)Cn4cnnn4)cc3CC(=O)N([C@@H](C)CO)C[C@@H]2C)cc1	0	0.3	-15	-0.29
C[C@@H]1CCCCO[C@@H](CN(C)C(=O)CCCN(C)C)[C@@H](C)CN([C@H](C)CO)C(=O)c2cc(NC(=O)Nc3ccccc3)ccc2O1	-19	.	-3	0.073
CS(=O)(=O)N(CC(=O)Nc1cccc(Cl)c1Cl)c1cccc(F)c1	.	0.7	-12	.
C[C@@H]1CCCCO[C@H](CN(C)S(=O)(=O)c2cn(C)cn2)[C@@H](C)CN([C@H](C)CO)C(=O)c2cc(NS(C)(=O)=O)ccc2O1	.	.	-16	-0.5
O=C(CC(C(=O)N1CCc2ccccc21)C(=O)N1CCc2ccccc21)c1ccccc1	31	0.2	11	0.022
CC(=O)C1=C(C)Nc2ncnn2C1c1ccccc1[N+](=O)[O-] (centres undefined)	.	-2.1	8	.
C[C@H](CO)N1C[C@H](C)[C@@H](CN(C)S(=O)(=O)c2ccccc2)Oc2ccc(NC(=O)CCCCCC(=O)Nc3ccccc3N)cc2C1=O	.	1.3	3	0.17
COc1ccc(S(=O)(=O)Nc2ccc3c(c2)C(=O)N([C@H](C)CO)C[C@@H](C)[C@@H](CN(C)S(C)(=O)=O)O3)cc1	.	1.8	-8	0.41
C[C@@H]1CN([C@@H](C)CO)C(=O)Cc2cc(NC(=O)Cc3ccccc3)ccc2O[C@@H]1CN(C)Cc1ccc2c(c1)OCO2	-2	0.4	4	0.099
C[C@H]1CN([C@@H](C)CO)C(=O)Cc2cc(NS(=O)(=O)c3ccc(F)cc3)ccc2O[C@H]1CN(C)Cc1ccncc1	.	2.0	-10	0.031
COc1ccc(NC(=O)Nc2ccc3c(c2)C(=O)N([C@H](C)CO)C[C@H](C)[C@@H](CN(C)C(=O)Nc2ccc(C(F)(F)F)cc2)O3)cc1	-40	.	-2	0.15
C[C@H](CO)N1C[C@H](C)[C@@H](CN(C)S(=O)(=O)c2cccs2)Oc2ccc(N(C)C)cc2C1=O	-11	.	-5	0.11
Cc1cccc(NC(=O)c2cnn(-c3ccccc3)c2NC(=O)c2ccco2)c1	-23	0.0	-35	-0.69
C[C@@H]1CN([C@H](C)CO)C(=O)c2cccc(NC(=O)c3nc4ccccc4s3)c2O[C@@H]1CN(C)Cc1ccc(C(=O)O)cc1	-8	-2.8	-2	0.35
NC(=NC(=O)c1ccc(OCC(F)(F)F)nc1)c1ccc(C(F)(F)F)cc1	24	-2.1	0	-0.0083
C[C@H]1CN([C@@H](C)CO)C(=O)c2cccc(NC(=O)Nc3cccc4ccccc34)c2O[C@@H]1CN(C)C(=O)Nc1ccc(F)cc1	13	-2.3	-4	-0.045
Cc1noc(C)c1NC(=O)Nc1cccc2c1O[C@H](CN(C)S(=O)(=O)c1ccc(F)cc1)[C@H](C)CN([C@@H](C)CO)C2=O	-25	0.7	14	-0.15
Cc1ccc(S(=O)(=O)Nc2ccc3c(c2)CC(=O)N([C@H](C)CO)C[C@@H](C)[C@@H](CN(C)Cc2ccncc2)O3)cc1	2	-0.1	-1	-0.16
C[C@H]1CN([C@@H](C)CO)C(=O)Cc2cc(NC(=O)Nc3cccc4ccccc34)ccc2O[C@H]1CN(C)S(C)(=O)=O	.	0.2	6	0.17
C[C@@H]1CN([C@@H](C)CO)C(=O)Cc2cc(NC(=O)Cc3cn(C)c4ccccc34)ccc2O[C@@H]1CN(C)Cc1ccc(-c2ccccc2)cc1	14	-3.0	22	0.26
NC(=O)c1nnn(Cc2ccccc2)c1N	-19	0.0	11	0.32
C[C@H]1CN([C@@H](C)CO)C(=O)c2cc(NS(=O)(=O)c3cn(C)cn3)ccc2O[C@@H]1CN(C)S(C)(=O)=O	-9	1.0	1	-0.64
C[C@H]1CN([C@@H](C)CO)C(=O)c2cccc(NC(=O)C3CC3)c2O[C@@H]1CN(C)S(=O)(=O)c1cn(C)cn1	-30	1.9	-2	-0.32
O=C(CSc1nc2ccccc2s1)OCN1C(=O)c2ccccc2C1=O	-12	-0.2	-5	-0.018
COc1ccc(NC(=O)c2ccco2)c(NC(=O)CSc2ccc(Cl)cc2)c1	.	-0.8	26	.
Cc1noc(C)c1NC(=O)N(C)C[C@H]1Oc2c(NC(=O)Nc3ccc4c(c3)OCO4)cccc2C(=O)N([C@@H](C)CO)C[C@H]1C	-9	1.5	2	-0.047
N#CCCN(CCC#N)C(=O)c1ccco1	.	0.8	-7	.
C[C@@H]1CN([C@@H](C)CO)C(=O)c2cc(NC(=O)NC3CCCCC3)ccc2O[C@@H]1CN(C)C(=O)Nc1ccc2c(c1)OCO2	-7	-2.9	-13	0.083
COC(=O)c1ccc2ccccc2n1	43	-0.7	-46	0.22
COC(=O)C[C@@H]1C(C(=O)O)=CO[C@@H](O[C@@H]2O[C@H](CO)[C@@H](O)[C@H](O)[C@H]2O)/C1=C\COC(=O)/C=C/c1ccccc1	15	2.1	1	0.01
COc1ccc(NC(=O)N(C)C[C@H]2Oc3ccc(NC(=O)NC4CCCCC4)cc3CC(=O)N([C@@H](C)CO)C[C@@H]2C)cc1	?	1.3	0	0.014
CNC[C@@H]1Oc2c(NS(=O)(=O)c3ccc(F)cc3)cccc2C(=O)N([C@H](C)CO)C[C@@H]1C	-15	-0.5	-3	1.1
O=C(COc1ccc(S(=O)(=O)N2CCOCC2)cc1)Nc1ccccc1	.	-1.3	0	.
Cc1ccc(S(=O)(=O)N(C)C[C@@H]2OCCCC[C@@H](C)Oc3ccc(NC(=O)Nc4ccc(C(F)(F)F)cc4)cc3C(=O)N([C@H](C)CO)C[C@@H]2C)cc1	16	-3.2	15	0.48
Cc1ccc(S(=O)(=O)Nc2cccc3c2O[C@@H](CN(C)Cc2ccc(Oc4ccccc4)cc2)[C@@H](C)CN([C@H](C)CO)C3=O)cc1	36	-1.7	48	0.2
Cc1noc(C)c1NC(=O)N(C)C[C@@H]1Oc2ccc(NC(=O)CCCCCC(=O)Nc3ccccc3N)cc2C(=O)N([C@@H](C)CO)C[C@H]1C	.	1.5	-15	-0.099
C[C@H](CO)N1C[C@H](C)[C@H](CN(C)C(=O)Nc2ccccc2)Oc2ccc(NC(=O)NC3CCCCC3)cc2CC1=O	-13	0.9	-5	0.023
C[C@@H]1CN([C@@H](C)CO)C(=O)Cc2cc(NC(=O)Cc3ccccc3)ccc2O[C@@H]1CN(C)Cc1ccncc1	-34	-3.4	-6	0.013
C[C@@H]1CN([C@@H](C)CO)C(=O)c2cc(NS(=O)(=O)c3ccccc3)ccc2O[C@H]1CN(C)C(=O)Nc1ccc(F)cc1	-24	1.0	-4	0.12
Cn1cnnc1SCC(=O)c1cc2ccccc2oc1=O	.	-0.9	5	.
CNC[C@@H]1Oc2c(NC(=O)c3cc(C)nn3C)cccc2C(=O)N([C@@H](C)CO)C[C@H]1C	-30	.	7	0.046
COc1cc(/C=C2\Oc3cc(O)ccc3C2=O)ccc1O	-14	1.9	-103	-0.58
C[C@@H]1CN([C@H](C)CO)C(=O)Cc2cc(NC(=O)NC3CCCCC3)ccc2O[C@@H]1CN(C)Cc1ccc(Oc2ccccc2)cc1	.	-2.8	28	-0.6
C[C@@H]1CN([C@@H](C)CO)C(=O)c2cc(NC(=O)Nc3ccc4c(c3)OCO4)ccc2O[C@@H]1CN(C)S(=O)(=O)c1ccc(F)cc1	23	1.0	-3	0.087

The list is partial; rates above refer to the full screens.
